Assay outcomes: PubChem, National Center for Advancing Translational Sciences (NCATS)
Resorufin fluor – qHTS Assay for Spectroscopic Profiling in Resorufin Spectral Region; AID 588, 2007; actives 0.04% (n = 59,000); Compound fluorescence, resorufin region 547/598 nm, buffer; stronger effect = higher value; max dye-equivalent concentration, M; active = above 10 nM dye equivalent; inconclusive = 1 to 10 nM; inactive = 1 nM or less; a few of its hits are not listed in these tables; note: highest value over a series up to 38 µM
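Compounds in 100 mM Tris, pH 8.0, incubated 15 min at room temperature, then fluorescence read at 547 nm excitation/598 nm emission. Signal converted to dye-equivalent concentration via an on-plate six-point resorufin standard curve, per compound concentration.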
TSHR ag – qHTS Assay for Agonists of the Thyroid Stimulating Hormone Receptor. Potency, µM (doses to about 57.1 µM), inactives show top-dose activation, hits mostly activators. AID 926, 2007. HEK293-CNG-TSHR cells (CNG channel as cAMP sensor), membrane potential dye, cAMP. actives 0.48% (n = 73,000); active = well fitted activation curve of enough size with the parental cells flat; inconclusive = any curve in the parental cells; inactive = parental cells flat and receptor cells flat or falling; note: potency is the fitted concentration of half-maximal effect; % of control where 0% means no effect; weak receptor curves with flat parental cells got no call and are not listed
Target sequence (P16473 whole entry, looked up): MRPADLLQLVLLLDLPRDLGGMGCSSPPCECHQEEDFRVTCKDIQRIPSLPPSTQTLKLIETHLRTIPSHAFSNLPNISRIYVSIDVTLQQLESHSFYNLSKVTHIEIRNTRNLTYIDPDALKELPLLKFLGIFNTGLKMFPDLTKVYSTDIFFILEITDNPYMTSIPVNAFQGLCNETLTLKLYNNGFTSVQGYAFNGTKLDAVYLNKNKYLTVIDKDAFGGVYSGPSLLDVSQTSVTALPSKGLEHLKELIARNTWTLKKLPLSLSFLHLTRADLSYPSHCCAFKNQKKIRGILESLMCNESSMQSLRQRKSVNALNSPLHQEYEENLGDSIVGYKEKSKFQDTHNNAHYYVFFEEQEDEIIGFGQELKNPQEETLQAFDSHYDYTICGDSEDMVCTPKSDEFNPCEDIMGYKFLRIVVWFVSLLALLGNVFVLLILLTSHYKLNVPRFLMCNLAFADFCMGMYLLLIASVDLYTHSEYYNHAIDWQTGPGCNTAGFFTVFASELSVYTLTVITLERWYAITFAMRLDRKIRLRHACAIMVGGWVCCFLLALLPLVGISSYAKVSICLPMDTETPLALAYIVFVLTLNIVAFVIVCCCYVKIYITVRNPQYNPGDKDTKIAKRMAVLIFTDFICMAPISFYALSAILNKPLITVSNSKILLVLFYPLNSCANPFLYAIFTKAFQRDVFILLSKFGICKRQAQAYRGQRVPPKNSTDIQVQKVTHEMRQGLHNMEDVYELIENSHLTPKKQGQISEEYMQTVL
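HEK 293 cells stably expressing TSHR and a modified CNG channel, with CNG-only parental cells as counterscreen, were preloaded 60 min at room temperature with membrane potential dye containing 100 uM RO 20-1724. Compound exposure was 30 min, and depolarization was read as fluorescence at 590 nm.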
A488 autofl – qHTS Assay for Spectroscopic Profiling in A488 Spectral Region; max dye equivalency, M; compound autofluorescence, A488 spectral region, dye equivalency; stronger effect = higher value; actives 0.1% (n = 59,000); AID 591, 2007; active = above 10 nM dye equivalent; inconclusive = 1 to 10 nM; inactive = 1 nM or less; about half of its hits are not listed in these tables;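 note: highest value over a series up to 38 µM; compound alone in buffer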
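Compound autofluorescence was read in 100 mM Tris pH 8.0 after 15 min at room temperature, ex 480 nm/em 540 nm. Intensities were converted to A488 dye-equivalent concentration using an on-plate six-point A488 standard curve.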
AID923 – qHTS Assay for Allosteric/Competitive Inhibitors of Caspase-1: Spectroscopic Profiling in AFC Spectral Region; compound fluorescence, AFC spectral region (405/520 nm); almost no hit is shown here; Potency, µM (top dose mostly 57.5 µM), for the others: at the highest dose fluorescence increase, most hits filed as activators; actives 1.1% (n = 75,000); AID 923, 2007; active = well fitted activation curve with a large enough effect; inconclusive = small, poorly fitted or top-dose-only effect;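 note: potency is the fitted concentration of half-maximal effect; 0% is about no effect; scaled to a free AFC standard on each plate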
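Compound autofluorescence profiled at 405 nm ex/520 nm em during kinetic caspase 1 run (50 nM enzyme, 5 uM Ac-WEHD-AFC, HEPES pH 7.5, 10 mM DTT). Titration up to 57 uM; baseline from regression intercept, normalized to AFC standard curve.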
A647 fluor – qHTS Assay for Spectroscopic Profiling in A647 Spectral Region. 59,000 tested, under 10 active. Compound fluorescence, A647 channel (570/671 nm), Tris buffer. max dye-equivalent concentration, M; active means above 1 µM dye equivalent; inconclusive means 0.1 to 1 µM; inactive means 0.1 µM or less;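 note: values scaled relative to a standard on each plate; highest value over a series up to 38 µM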
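Buffer was dispensed, compounds and Alexa 647 standards were pin-transferred, and plates sat 15 min at room temperature. Intensity at 570/671 nm was then converted to dye-equivalent concentration using the plate's A647 standard curve.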
* hit, by the source's call; i = inactive; ? = inconclusive; . = not tested or not shown; [ ] = another dose, or the depositor's remark. These rows are one share of the data; rates above refer to the full screens.

Each structure is followed by: Resorufin fluor, AID923, TSHR ag, A647 fluor, A488 autofl
> Cc1ccc(SCC(=O)N2CC(C)OC(C)C2)cc1 (stereo not drawn)
  i, 1.8%, -7%, 3.1e-09, i
> CCC(C)c1c(O)nc(SCC(=O)c2ccccc2)[nH]c1=O (stereo not drawn)
  ., 0.9%, 7%, ., .
> CSc1ccc(Cn2nnc(C(=O)NCc3ccccc3)c2N)cc1
  ., -1.1%, 17%, ., .
> CCC(=O)c1ccc(O)cc1
  i, ., ., 4.3e-09, i
> COc1ccc(-c2cc(-c3c(O)c(OC)c4occc4c3OC)[nH]n2)cc1OC
  i, -0.2%, 1%, 1.4e-09, i
> CCN(CC(=O)N1CCOCC1)S(=O)(=O)c1ccc(C)cc1
  i, -1.2%, 0%, 8e-08, i
> c1ccc(-n2nnnc2OCCOc2nnnn2-c2ccccc2)cc1
  i, -3.7%, ?, 7.2e-09, i
> Cc1ccc(CSc2nnc(-c3cccs3)n2C)cc1
  i, -1.3%, 29%, 1e-09, i
> CC1(C)SCC2C(=O)N3C(CSC3(C)C)C(=O)N21 (stereo not drawn)
  ., 2.3%, 0%, ., .
> COc1cccc(NC(=O)Cc2nnc(SCCOc3ccccc3)n2C)c1
  i, -1.0%, 8%, 1e-09, i
> CCOCCOCC
  ., 3.6%, 0%, ., .
> Cc1ccccc1-n1c(SCc2cc(=O)n3ccccc3n2)nc2[nH]ncc2c1=O
  i, 3.1%, 4%, 3.4e-09, i
> COC(=O)CN1C(=O)CC(C)(C)S(=O)c2ccccc21 (stereo not drawn)
  ., -2.8%, -2%, ., .
> CC(=O)c1cccc(NC(=O)c2ccc(N(C)S(C)(=O)=O)cc2)c1
  i, 0.5%, 9%, 5.1e-09, i
> O=C(O)CCC(NS(=O)(=O)c1ccc(-c2ccccc2)cc1)C(=O)O (stereo not drawn)
  i, 3.4%, 5%, 1e-09, i
> CCOC(=O)N1CCC2(CC1)C(C#N)=C(N)Oc1c2c(C)nn1-c1cccc(Cl)c1
  i, 0.2%, -4%, 1.4e-08, i
> OCCN1CCN(C(c2cccs2)c2ccc3cccnc3c2O)CC1 (stereo not drawn)
  i, -0.5%, 28%, 1.8e-09, i
> CCN(CC)CCCNC(=O)c1cn(C)c2ccc(S(=O)(=O)N(C)C)cc2c1=O
  ., 1.5%, -1%, ., .
> CCOC(=O)N1CCN(S(=O)(=O)c2ccc(OCC(=O)OC)c(C)c2)CC1
  i, -2.3%, ., 1.9e-08, i
> CCCOc1ccc(S(=O)(=O)n2cc(Br)c(=O)[nH]c2=O)cc1
  ., -2.0%, 5%, ., .

3 entries already listed, sorted by formula weight, highest first.
Each structure is followed by: Resorufin fluor, AID923, TSHR ag, A647 fluor, A488 autofl
> COc1cccc(NC(=O)Cc2nnc(SCCOc3ccccc3)n2C)c1
  i, -1.0%, 8%, 1e-09, i
> OCCN1CCN(C(c2cccs2)c2ccc3cccnc3c2O)CC1 (stereo not drawn)
  i, -0.5%, 28%, 1.8e-09, i
> CCOCCOCC
  ., 3.6%, 0%, ., .

Carrying on.
Each structure is followed by: Resorufin fluor, AID923, TSHR ag, A647 fluor, A488 autofl
> CCOC(=O)CSC(CC)C(=O)Nc1nnc(CC)s1 (stereo not drawn)
  ., -2.0%, -8%, ., .
> Cc1ccc(-n2ncc3c(NCc4ccco4)ncnc32)c(C)c1
  ., -8.9%, 18%, ., .
> CCN(CC(=O)Nc1ccc2c(c1)OCCO2)c1nc(-c2cccnc2)nc2ccccc12
  i, 4.1%, ., 1e-09, i
> C=CCN1CC(O)=C(c2ccccc2)C1=N
  i, -1.0%, 1%, 3.6e-08, i
> Cc1noc(COc2ccc(OCc3nc(C)no3)cc2)n1
  ., 4.6%, -2%, ., .
> COC(=O)[C@@]1(Cc2ccccc2)[C@H]2c3cc(C(=O)N4CCCC4)n(Cc4ccccc4)c3C[C@H]2CN1C(=O)c1ccccc1
  ., -0.5%, ?, ., .
> CC(=O)Nc1cc2c(cc1C(=O)c1ccccc1)OCCO2
  ., 9.3%, 6%, ., .
> CCCCCCCCCCCCCC(=O)O
  ., -6.3%, 18%, ., .
> CCCSc1nnc(NC(=O)Nc2ccc(F)cc2)s1
  i, ., ., 1e-09, i
> CCOc1ccc(OCC)c(NC(=O)CSc2nc3c(c(=O)n(C)c(=O)n3C)n2C(C)C)c1
  i, -0.3%, ?, 1.8e-08, i
> O=C(Nc1cccc(OC(=O)c2ccco2)c1)c1ccco1
  i, -1.3%, 28%, 2.7e-08, i
> C#CCCCO/N=C1/C[C@@H](O)[C@@H](O)[C@@H]2[C@@H]3C(=O)N(c4cccc(Oc5ccccc5)c4)C(=O)[C@H]3CC[C@@H]12
  ., -1.0%[11.5 µM], -5%[11.4 µM], ., .
> CCN(Cc1ccccc1)C(=O)CSc1nc(C)cc2c1C(=O)OC2
  i, 1.6%, 0%[11.4 µM], 1e-09, i
> CCOC(=O)CSC(CC)C(=O)Nc1nnc(C(C)C)s1 (stereo not drawn)
  ., 0.3%, ?, ., .
> C[N+](C)(C)c1cc2c(nn1)Nc1ccccc1S2
  i, -1.5%[11.5 µM], -21%[11.4 µM], 9.8e-09, i
> Cc1ccc(S(=O)(=O)N2CCCC2C(=O)Nc2nc3c(s2)CCCC3)cc1 (stereo not drawn)
  i, 0.0%, 7%, 3.6e-08, i
> Cc1nc2ccccc2nc1N1CCC(C)CC1
  i, 6.4%, ?, 1e-09, i
> Cc1cccc(-n2c(CCCN3C(=O)c4ccccc4C3=O)nc3ccccc3c2=O)n1
  i, 0.7%, 8%, 3e-09, i
> Cc1ccc(NC(=O)c2oc3ccc(S(=O)(=O)N4CCOCC4)cc3c2C)cc1C
  i, -3.8%, ?, 3.1e-08, i
> CN(C(=O)c1ccncc1)c1ccccc1
  i, 3.2%[11.5 µM], -7%[11.4 µM], 1e-09, i
> CCOC(=O)N1CCN(CC(=O)Nc2ccc(OC)cc2)CC1
  i, 1.0%, 3%, 1.7e-09, i
> CCOC(=O)C(CC)n1cnc2c(nnn2-c2ccc(C)cc2)c1=O (stereo not drawn)
  i, -2.2%, 13%, 1e-09, i
> COCc1cc(C)nc(SCC(=O)Nc2ccc(C)c(C)c2)c1C#N
  i, ., ., 7.3e-09, i
> O=C1NC2c3ccccc3C(=O)N2c2c1cnn2-c1ccccc1 (stereo not drawn)
  i, ., ., 6.9e-08, i
> CN(Cc1ccco1)C(=O)c1ccc(N2CCCC2=O)cc1
  i, 0.8%, 2%, 6.6e-09, i
> OCc1ccnc2c(O)cccc12
  i, -1.1%, ., 3.2e-08, i
> Cc1cc(N2CCC3(CC2)OCCO3)n2nc(C)c(-c3ccc(Cl)cc3)c2n1
  i, -1.5%, 14%, 1e-09, i
> O=C(C1CCN(C2CC(=O)N(c3ccc(Cl)cc3)C2=O)CC1)N1CCOCC1 (stereo not drawn)
  i, -1.0%, 6%, 1e-09, i
> CCOc1ccc(N=C2NC(=O)C(CC(=O)O)S2)cc1 (stereo not drawn)
  ., 5.9%, 1%, ., .
> CCn1c(C(C)NC(=O)c2cccc(C)c2)nc2ccccc21 (stereo not drawn)
  ., -2.9%, 0%, ., .
> CC(C)(C)NC(=O)Cn1ccc(=N)c2ccccc21
  i, -0.8%, -4%, 3e-08, i
> COc1ccc(CN2CCN(C(=O)c3cccs3)CC2)c(OC)c1OC
  ., -0.1%, 5%, ., .
> N#CC1=C(SCC(=O)NC23CC4CC(CC(C4)C2)C3)NC(=O)C(C#N)C12CCCCC2 (stereo not drawn)
  i, -2.7%, ?, 1.3e-09, i
> Cc1cc(Cl)ccc1OCC(=O)N1C(C)CCCC1C (stereo not drawn)
  i, 0.1%, ?, 2.3e-08, i
> O=C(CCCSc1nc(-c2ccco2)cc(C(F)(F)F)n1)NCc1cccs1
  i, -1.5%, ., 3.9e-08, i
> CCC(CC)C(=O)Nc1nnc(SCC(=O)N2CCN(c3ccccc3OC)CC2)s1
  i, -3.2%, -8%, 1.6e-08, i
> CCNc1nc(Oc2ccc(=O)n(C)n2)nc(N2CCOCC2)n1
  i, 0.2%, -3%, 3.3e-08, i
> COc1ccccc1NC(=O)Nc1ccc(Br)cn1
  i, -2.1%, 9%, 1.4e-08, i
> Cc1cc2cc(CNC(=O)c3ccc4c(c3)OCO4)ccc2n1C
  ?, 12%, 9%, 2e-08, i
> O=C(O)CC[C@@H](C(=O)O)N1C(=O)[C@@H]2[C@@H]3CC[C@H](C3)[C@@H]2C1=O
  i, -1.5%[11.5 µM], 1%[11.4 µM], 3.4e-08, i
> Cn1cc(-c2nc3ccccc3[nH]2)c2ccccc21
  i, 0.0%, ?, 3.6e-09, i
> Cc1cc(-c2nnco2)c(C)n1-c1ccccc1
  i, -1.6%, ?, 1e-09, i
> CCC(=O)Nc1ccc(-c2nc(-c3ccccc3)n(CC(=O)N3CCCCC3)n2)cc1
  i, 2.2%, 13%, 3.7e-08, i
> O=C(CNC(=O)C1CCCCC1)NC1=NCCS1
  ., 1.6%, -10%, ., .
> COc1ccccc1Cn1c(=O)c2ccccc2n2c(SCc3csc(C)n3)nnc12
  i, 6.5%, 15%, 1e-09, i
> Cc1cccc(OCC(=O)Nc2ccc(N3CCN(S(C)(=O)=O)CC3)cc2)c1C
  i, 2.0%, -6%, 1.7e-09, i
> O=C(CSc1nnc(CCCO)n1-c1ccccc1)Nc1nccs1
  i, -0.4%, ?, 2.9e-08, i
> CCn1c(CNc2ccc(F)cc2)nnc1SCC(=O)Nc1ccc(OC)cc1OC
  i, -1.4%, -7%, 6.3e-08, i
> CC(C)Cc1n[nH]c(=O)[nH]1
  i, -0.3%, ?, 6.4e-09, i
> O=c1cc(-c2ccccc2)nc2nc(-c3ccccc3)[nH]n12
  i, -0.2%, -10%, 4.3e-08, i
> Cn1ccc(O)c(C#N)c1=O
  i, 0.6%, 7%, 1.3e-08, i
> Cc1ccc2cc(C(c3nnnn3CC3CCCO3)N3CCc4ccccc4C3)c(=O)[nH]c2c1 (stereo not drawn)
  i, 9.2%, 7%, 3.9e-09, i
> CN(C)c1nc2c(c(=O)[nH]c(=O)n2C)n1Cc1ccc(F)cc1
  ., -2.3%, -6%, ., .
> COc1ccc(OC)c(NC(=O)CSc2nnnn2-c2ccc3c(c2)OCO3)c1
  i, -1.9%, ?, 9e-09, i
> N#Cc1cccc(NC(=O)N2CCCC3(CCN(C(=O)c4cnccn4)CC3)C2)c1
  i, -1.8%, 3%, 2.2e-09, i
> Cc1ccccc1OCC(=O)Nc1ccccc1N1CCOCC1
  ., 0.5%, ?, ., .
> Cc1ccc(S(=O)(=O)Cn2nnnc2C(C(C)C)N2CCc3ccccc3C2)cc1 (stereo not drawn)
  i, 3.4%, ?, 1.1e-09, i
> O=C(CN1C(=O)NC(Cc2ccccc2)C1=O)NC(=O)NC1CCCCC1 (stereo not drawn)
  i, -1.1%, -8%, 2.1e-09, i
> c1ccc(CNc2ccnc(-c3ccc4c(c3)OCO4)n2)cc1
  i, -0.5%, ?, 3e-09, i
> CCOC(=O)C1=C(C)Nc2nc3ccccc3n2C1c1ccncc1 (stereo not drawn)
  i, 0.1%, 3%, 2.2e-08, i
